Six1-Eya2 blk = inhibitors of human Six1/Eya2 interaction; 0.56% of 360,000 active; AlphaScreen GST-Six1/His-Eya2 binding, biochemical; stronger effect = lower value; control for the full effect not named in the record; activity change, % (test concentration not listed); in the data active = activity change below about -65%; inconclusive = about -30% to -65%; inactive = above about -30%; note: % is set by controls: 0 for no effect and ±100 for the full control effect; compound concentration not given in the record
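GST-Six1 + His-Eya2 (5X stock: 250/500 nM); Tris pH 8.0, 300 mM NaCl, 0.05% BSA, 0.02% Tween 20; GSH donor/Ni acceptor beads; 1 h 37 °C dark; AlphaScreen readout.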
D2 PAM = human D2 receptor positive allosteric modulation | DiscoveRx D2 beta-arrestin cells, luminescence, 90 min; 100% = 57 uM dopamine signal | potentiation, % (no concentration beside the values) | 0.23% of 360,000 active | AID 624464; active = potentiation of 50% or more; inconclusive = 30% to 50%; inactive = 30% or less;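 note: compound concentration not given in the record; tested on top of an EC20 dose of dopamine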
Target sequence (P14416 whole entry, looked up): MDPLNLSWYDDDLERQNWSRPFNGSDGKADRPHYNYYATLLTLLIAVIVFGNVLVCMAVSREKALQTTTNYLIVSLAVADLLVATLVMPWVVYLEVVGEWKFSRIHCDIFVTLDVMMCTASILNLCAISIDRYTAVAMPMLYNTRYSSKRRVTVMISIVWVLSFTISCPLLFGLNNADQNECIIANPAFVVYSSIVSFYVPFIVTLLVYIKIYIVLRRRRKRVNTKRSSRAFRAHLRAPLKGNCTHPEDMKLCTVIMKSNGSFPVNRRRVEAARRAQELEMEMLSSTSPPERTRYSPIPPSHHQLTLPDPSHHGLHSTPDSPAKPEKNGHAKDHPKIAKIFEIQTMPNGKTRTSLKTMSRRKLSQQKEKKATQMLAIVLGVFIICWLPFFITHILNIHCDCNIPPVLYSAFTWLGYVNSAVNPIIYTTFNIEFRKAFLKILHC
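PathHunter beta-arrestin assay in DiscoveRx D2 cells. Compounds were added with an EC20 of dopamine (50 nM final) for 90 min at 37 deg C. Luminescence was read 1 h after detection reagent, with 57 uM dopamine as the EC100 control.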
PINK1 modulator = modulators of PINK1 expression. Potency, µM (titrated, usually from 76.6 µM), for inactives: at the highest dose activation (PINK1 increase), actives largely listed as activators. 0.2% of 410,000 active. PINK1 immunofluorescence, high-content cytometry, 24 h. AID 624263; active = well fitted activation curve with a large enough effect; inconclusive = small, poorly fitted or top-dose-only effect; inactive = flat fitted curve, though single readings scatter; cell line not stated here;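 note: potency is the fitted concentration of half-maximal effect; % of control where 0% means no effect; nearly all actives have a fitted effect of over 65% in size; a mitochondrial uncoupler was the plate control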
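Cells are seeded, rested 12 hours, then given compound at five concentrations or DMSO for 24 hours. After fixation, blocking and antibody staining, PINK1 amount and mitochondrial localization are scored; CCCP serves as control.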
TRPML1 ag = activates the human TRPML1 channel. activation, % (no concentration beside the values). 0.12% of 410,000 active. TRPML1-expressing cells, Ca2+ dye fluorescence, FDSS; host cell line not named in the record; reference of the full effect not given here. AID 624414; in the data active = activation above about 50%; inconclusive = about 30% to 50%; inactive = below about 30%; note: 0% is about no effect; the text of the record puts the active cut at 80%
Target sequence (Q9GZU1 whole entry, looked up): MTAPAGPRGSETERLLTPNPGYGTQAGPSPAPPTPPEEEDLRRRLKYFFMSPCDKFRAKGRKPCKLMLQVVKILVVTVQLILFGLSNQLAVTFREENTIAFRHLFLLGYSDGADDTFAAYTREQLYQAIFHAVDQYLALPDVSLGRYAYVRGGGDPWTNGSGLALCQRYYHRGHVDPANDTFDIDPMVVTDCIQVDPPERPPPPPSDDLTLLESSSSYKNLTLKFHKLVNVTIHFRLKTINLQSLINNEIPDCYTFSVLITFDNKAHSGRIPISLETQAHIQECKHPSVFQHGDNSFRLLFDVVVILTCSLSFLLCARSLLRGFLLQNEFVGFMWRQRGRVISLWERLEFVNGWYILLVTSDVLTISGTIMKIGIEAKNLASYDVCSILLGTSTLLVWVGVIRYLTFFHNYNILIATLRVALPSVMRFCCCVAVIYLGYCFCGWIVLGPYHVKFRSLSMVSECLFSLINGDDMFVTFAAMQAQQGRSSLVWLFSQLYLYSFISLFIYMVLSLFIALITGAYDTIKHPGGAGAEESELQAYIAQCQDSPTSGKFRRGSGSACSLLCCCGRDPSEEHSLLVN
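Calcium fluorescence on an FDSS kinetic reader gave the read-out. Tet-induced TRPML1-DL cells were plated overnight, dye-loaded (Ca8 with quencher, 45-90 min, room temperature, dark), then read 110 s after compound addition, and again 110 s after 4uM final 54-4 (EC80).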
CtBP-E1A blk = CtBP/E1A binding inhibition. AlphaScreen GST-E1A/His-CtBP binding, 1536-well; stronger effect = lower value; control for the full effect not named in the record. activity change, % (no concentration beside the values). 0.49% of 340,000 active; in the data active means activity change below about -65%; inconclusive means about -30% to -65%; inactive means above about -30%; note: % is set by controls: 0 for no effect and ±100 for the full control effect; compound concentration not given in the record
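Homogeneous bead-based format: GST-tagged E1A captured on glutathione donor beads, His-tagged CtBP on nickel acceptor beads; compounds precede bead addition by 2 h at 37 °C.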
D2 ag = activates the human D2 dopamine receptor; P14416; DiscoveRx PathHunter D2 beta-arrestin, luminescence, 90 min; 100% = 57 uM dopamine signal; activation, % (no concentration beside the values); 0.084% of 360,000 active; in the data active = activation above about 40%; inconclusive = about 15% to 40%; inactive = below about 15%; note: compound concentration not given in the record; the text of the record calls up to 30% inactive
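DiscoveRx PathHunter D2 beta-arrestin cells (2,100/well) attached overnight, then compound-stimulated 90 min at 37 C in HBSS/10 mM HEPES/0.1% Tween-20 buffer; beta-galactosidase complementation read by luminescence after 1 h at ambient temperature. Dopamine 57 uM final (EC100) as control.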
* = called active by the depositor; ? = inconclusive; nt = not tested or not shown; & = joins results of further samples; [ ] = remark or other dose. Random draw from the library; any-hit rate near 1.3%.

SMILES	TRPML1 ag	D2 ag	CtBP-E1A blk	Six1-Eya2 blk	D2 PAM	PINK1 modulator
COc1cccc(CNC(=O)c2ccc(S(=O)(=O)N3CCOCC3)cc2)c1	0.0	-4.6	4	1	-3	0.5%
COc1ccc(Cc2nnc(NS(=O)(=O)c3ccccc3)s2)cc1	0.4	-1.1	0	0	-1	-1.6%
COc1cc2c(=O)n(CC3CCCO3)c(=O)n(CC(=O)Nc3ccccc3)c2cc1OC (stereo unspecified)	-0.8	-4.5	3	-5	-3	-0.2%
CO/N=C/c1ccc(OC)c(Oc2nc(OC)cc(OC)n2)c1	-0.5	4.7	7	4	-1	7.6%
O=C(Nc1cc(C(F)(F)F)ccc1N1CCCCC1)c1ccco1	2.9	0.4	7	13	-4	9.0%
C[C@@H]1CN([C@H](C)CO)C(=O)c2cc(-c3ccc(C(=O)N(C)C)cc3)cnc2O[C@@H]1CN(C)C(=O)c1cccnc1	1.4	-2.0	0	8	1	-2.4%
FC(F)c1nnc2c(Cl)cc(C(F)(F)F)cn12	-0.3	-2.2	5	5	-6	0.0%
COc1cccc(CC2(CO)CCCN(Cc3ccc4c(c3)OCCO4)C2)c1 (stereo unspecified)	-0.2	-4.6	-13	1	-6	1.1%
Oc1ccc(O)c(Cc2nc3ccccc3[nH]2)c1	0.1	9.5	-3	1	-12	0.0%
CCOc1cc2[nH]c(=O)n(Cc3ccc(C(=O)NCCOC)cc3)c(=O)c2cc1OCC	0.4	-3.6	?	0	-10	0.9%
CC(C)[C@H](NC(=O)c1ccco1)C(=O)OCc1cc(=O)n2c(n1)sc1ccccc12	0.7	-5.3	-12	-14	-14	1.7%
CC(C)N1CCc2c(sc(NC(=O)c3ccc(S(=O)(=O)N4CCOCC4)cc3)c2C#N)C1	5.6	-3.8	-1	3	-6	1.8%

One compound at a time, as listed above. Values in the order: TRPML1 ag | D2 ag | CtBP-E1A blk | Six1-Eya2 blk | D2 PAM | PINK1 modulator
Oc1ccc(O)c(Cc2nc3ccccc3[nH]2)c1 in the list: 0.1 | 9.5 | -3 | 1 | -12 | 0.0%
CCOc1cc2[nH]c(=O)n(Cc3ccc(C(=O)NCCOC)cc3)c(=O)c2cc1OCC in the list: 0.4 | -3.6 | ? | 0 | -10 | 0.9%
CC(C)N1CCc2c(sc(NC(=O)c3ccc(S(=O)(=O)N4CCOCC4)cc3)c2C#N)C1 in the list: 5.6 | -3.8 | -1 | 3 | -6 | 1.8%

(further entries)
SMILES	TRPML1 ag	D2 ag	CtBP-E1A blk	Six1-Eya2 blk	D2 PAM	PINK1 modulator
O=C(COC(=O)c1ncc(Cl)c(Cl)c1Cl)NC1CCCCCC1	0.4	0.9	-6	6	22	3.5%
COc1ccc(C(=O)CN2CCN(S(=O)(=O)c3cccc([N+](=O)[O-])c3)CC2)cc1OC	-0.1	-2.3	0	1	-1	1.7%
CCN(Cc1ccccc1)S(=O)(=O)c1csc(C(N)=O)c1	0.7	-1.1	6	3	-4	-0.7%
CCNC(=S)NNC(=O)c1csc2c1CCCC2	-0.2	-3.2	-2	3	-15	-9.0%[38.3 µM]
COC(=O)CCC(NC(=O)OCc1ccccc1)C(=O)NC(CC(C)C)C(=O)OC (stereo unspecified)	-0.4	-0.9	-4	2	-11	4.2%
CCCCN1CC(=O)N2[C@H]3c4ccc(OC)cc4OC[C@@H]3[C@H](C(=O)OCC)[C@]2(C)C1=O	0.6	0.7	1	5	-1	0.1%
C[C@@H]1CN([C@@H](C)CO)S(=O)(=O)c2ccc(-c3cccc(C#N)c3)cc2O[C@@H]1CN(C)C(=O)c1ccc(F)cc1	0.2	-5.4	-24	-14	-4	2.2%
Cc1ccc(S(=O)(=O)N2c3ccccc3-c3c(ssc3=S)C2(C)C)cc1	27	-8.3	-4	?	-8	3.7%
CCOc1cc(C(=O)O/N=C(\N)c2ccccn2)cc(OCC)c1OCC	nt	?	nt	19	72*	-1.6%
O=C(N/N=C/c1c(F)c(F)c(F)c(F)c1F)c1cc(-c2ccccc2)nc2ccccc12	0.4	1.1	4	0	-3	-0.9%
CCC(C)NC(=O)COCc1cc(-c2ccc3c(c2)OCO3)on1 (stereo unspecified)	0.1	-0.9	3	2	-3	-0.4%
CN1CCN(CCC(=O)Nc2ccc(F)c(F)c2)CC1	0.8	-0.6	-8	3	-9	-2.6%

Records listed above printed as active in D2 PAM.
SMILES	D2 ag	CtBP-E1A blk	Six1-Eya2 blk	D2 PAM
CCOc1cc(C(=O)O/N=C(\N)c2ccccn2)cc(OCC)c1OCC	?	nt	19	72*

Next part
SMILES	TRPML1 ag	D2 ag	CtBP-E1A blk	Six1-Eya2 blk	D2 PAM	PINK1 modulator
CCCCc1ccc(NC=C2C(=O)OC3(CCCCC3)OC2=O)cc1	21	-0.5	9	6	-14	-0.5%
Cc1cc(C(=O)Nc2ccc(F)cc2F)on1	1.0	-2.0	0	-1	-16	-1.8%
O=S(=O)(Nc1cccc(-n2cnnn2)c1)c1ccccc1C(F)(F)F	-0.6	1.2	0	1	3	0.6%
Cc1ccccc1NC(=O)c1nc[nH]c1C(=O)NCc1ccccc1	-0.4	-2.2	-7	-11	-20	-1.3%
O=C(Nc1ccc(Br)cc1)C1CCN(C(=O)c2ccco2)CC1	-1.4	-2.0	6	9	-16	5.0%
CCOc1ccccc1N/C(=C(/C(Cl)=C(Cl)Cl)[N+](=O)[O-])n1cncn1	1.1	-3.2	13	?	-8	-1.1%
COc1cccc(N2CCN(c3ccc4nnc(CCC(=O)Nc5cc(C)ccn5)n4n3)CC2)c1	1.7	-3.9	-21	4	-15	-1.1%
C=CCN1c2ccccc2Sc2cnccc21	0.0	0.4	4	-2	-16	-0.8%
Cc1cccc(C)c1NC(=O)N1CCC(N2CCCCC2)CC1	1.2	-1.5	0	11	-1	26%
C[N+](C)(C)CCCCCCC(=O)/C=N/O	-0.7	-1.2	nt	24	-2	2.4%
CCOC(=O)CSc1ncnc2c1c(-c1ccccc1)cn2-c1ccc(OC)cc1	-0.5&0.6	-1.1	-6	-10	-10	-0.7%&1.4%
C#CCN1C(=O)S/C(=C\c2cc3c(cc2OC)OCO3)C1=O	-0.3	3.5	-1	-13	-6	?
CCOC(=O)C1CCCN(S(=O)(=O)c2ccc(OC)c3ccccc23)C1 (stereo unspecified)	3.3	-1.2	10	3	-11	4.1%
Cc1c(C#N)c(NC(=O)c2ccccc2)n(Cc2ccccc2)c1C	3.0	-0.1	-2	-2	9	-1.2%
Cc1ccc(N2CCN(S(=O)(=O)c3ccc(Cl)s3)CC2C)cc1 (stereo unspecified)	-0.7	4.0	-1	-18	4	1.6%
O=C1NC(=Nc2ccc3ccccc3c2)S/C1=C/c1ccco1	0.4	-4.5	1	-5	-10	?
COc1ccccc1CNC(=O)c1cc(=O)c2ccccc2o1	-1.1	-0.6	-6	-10	-3	0.2%
NS(=O)(=O)c1ccc(NC(=O)CN2CCN(S(=O)(=O)/C=C/c3ccccc3)CC2)cc1	1.3	2.4	-2	4	-1	0.1%
Cc1nc(CS(=O)(=O)c2ccc(Cl)cc2)cc(N2CCOCC2)n1	-0.5	1.2	-3	-3	-2	2.0%
CC(OC(=O)c1cc(=O)[nH]c2ccccc12)C(=O)NCc1ccccc1 (stereo unspecified)	1.0	-3.1	0	-10	-8	0.4%
Cc1ccc(C(=O)N(C)Cc2ccccc2)cc1S(=O)(=O)N1CCOCC1	0.6	-1.3	6	1	18	-0.7%
Cc1nc2ccccc2nc1OCc1cccc([N+](=O)[O-])c1	1.3	-7.1	-17	3	-4	3.2%
CC(C)CCN1C(=O)c2ccc(C(=O)Nc3ccc(O)cc3C(=O)O)cc2C1=O	0.3	-1.1	nt	-25	10	1.4%
COc1ccc(CNc2ccc3c(c2)nc(C)n3C)cc1OC	1.0	-5.6	-2	0	-3	1.2%
CN1C2C=C3C(C#N)=C(N)C(C#N)(C#N)[C@@H](c4ccc(Cl)cc4)[C@@H]3C1CC2 (stereo partly specified)	-0.2	-0.4	-1	-8	-7	7.7%
O=C(Cn1ncc2c(=O)oc3ccccc3c21)N1CCC(N2CCCCC2)CC1	-0.5	-3.6	-3	1	-3	2.1%
CCn1nc(NS(=O)(=O)c2cccc3nonc23)c2cc3ccc(C)cc3nc21	-0.2	-4.2	?	?	-13	0.7%
NC(=O)C1CCN(C(=O)CCCCCn2c(=O)[nH]c3ccsc3c2=O)CC1	0.1	4.1	-1	1	0	-2.4%
O=C(CNC(=O)Cc1ccccc1)N=Nc1c(O)[nH]c2ccc(Br)cc12	-0.4	-4.6	-10	-6	-15	-0.7%
CCOc1cc(N2CCOCC2)c(OCC)cc1NC(=O)CN1CCCC(C)C1 (stereo unspecified)	-0.3	0.6	-15	-20	10	0.5%
O=C(COc1ccc(S(=O)(=O)N2CCCCC2)cc1Cl)N1CCCC1	1.3	2.3	0	9	-3	2.9%
CC(=O)OCCn1c(Br)nc2c1c(=O)[nH]c(=O)n2C	2.5	-1.2	-5	-1	4	-2.6%
N#C/C(=C\N1CCOCC1)C(N)=O	-0.7	-4.5	1	0	2	0.0%
Cc1ccc(OCC(=O)OCc2c(C)noc2C)cc1C	0.4	1.4	13	9	-6	0.7%
O=C1CCc2cc(S(=O)(=O)N3CCC(C(=O)NCc4ccccc4Cl)CC3)ccc2N1	-0.8	-5.9	-2	-6	-2	0.0%
CCC[C@@H](CN1CCC[C@H]1CN1C(N)=NC[C@@H]1Cc1ccccc1)N1C[C@@H]([C@H](C)CC)N(CCCC2CCCC2)C1=N	-0.8	-3.9	-3	1	-113	?
O=S(=O)(NCC1(N2CCOCC2)CCCCC1)c1ccc(Cl)cc1C(F)(F)F	81*	-5.6	3	9	-2	1.6%
CC1=CC2(C)C(C3C(C)=CC2(C)C(=O)C3(C)O)C(C)(O)C1=O (stereo unspecified)	-0.4	-3.5	-1	0	-6	3.7%
CCOC(=O)C(=O)Nc1ccccc1C#N	1.5	-2.6	7	4	-2	-1.7%
CC(N)=Nc1ccc([N+](=O)[O-])cc1	0.3	-1.5	2	14	-21	-0.5%
O=C(c1cccc([N+](=O)[O-])c1)N1CCCC(C(=O)N2CCCCCC2)C1 (stereo unspecified)	0.4	2.2	8	6	-4	0.3%
Cc1ccc(S(=O)(=O)N(Cc2n[nH]c(=S)n2-c2ccccc2)c2ccccc2)cc1	0.9	-2.1	1	3	-17	2.7%
CC(NC(=O)c1ccccc1C(=O)O)c1ccc(-n2ccnc2)cc1 (stereo unspecified)	0.0	-2.5	nt	-3	-21	0.0%
CCOC(=O)C1=C(N)Oc2cc(O)ccc2C1c1cccnc1 (stereo unspecified)	2.7	?	-2	-5	14	4.7%
Cc1ccc(-c2noc(CCC(=O)Nc3ccc4c(c3)OCO4)n2)cc1	1.4	2.0	-3	3	0	5.2%
CON(C)S(=O)(=O)c1cccc(C(=O)N(CC(=O)Nc2ccccc2C(F)(F)F)Cc2ccco2)c1	-0.3	7.2	nt	-5	3	0.0%
O=C1CCCC(=O)C1CS(=O)(=O)c1ccccc1	0.2	-0.3	-9	7	3	5.1%
Cc1cc(=O)oc(C)c1C(=O)Nc1ccc(Cl)cn1	0.6	2.0	7	5	17	-2.2%

From PubChem
